Screening results deposited in PubChem by National Center for Advancing Translational Sciences (NCATS).
Sfp inh – inhibitors of Bacillus subtilis Sfp phosphopantetheinyl transferase; 3.5% of 310,000 active; Biochemical Sfp PPTase activity, qHTS; Q9F4F7; Potency, µM, inactives show max response, negative = inhibition, most hits filed as inhibitors; AID 1490; active = well fitted inhibition curve with a large enough effect; inconclusive = small, poorly fitted or top-dose-only effect, or another doubt; inactive = no such curve, though single readings can be large or run the other way;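 note: the enzyme is Sfp with the accession as filed and its product quenches rhodamine fluorescence; potency is the fitted concentration of half-maximal effect; 0% = enzyme reaction without inhibitor and -100% = no enzyme wells; top concentration of the series not given in the record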
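After 15 min at room temperature with compound, 15 nM Sfp received 5 uM rhodamine-CoA plus 12.5 uM BHQ-2-ybbR (50 mM Hepes pH 7.6, 10 mM MgCl2). Rate came from the fluorescence difference over 30 min, ex 525/em 598 nm.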
ClpP mod – qHTS Assay for Activators of ClpP; ATP-dependent Clp protease proteolytic subunit (Bacillus subtilis (strain 168)), P80244; purified B. subtilis ClpP, FRET peptide cleavage, 20 min; Potency, µM (series often up to 57.5 µM), for inactives: at the top dose activity change, negative = active; 1.9% of 340,000 active; active = well fitted falling curve with a large enough effect; inconclusive = small, poorly fitted or top-dose-only effect; inactive = no such curve, though single readings can be large or run the other way; note: potency is the fitted concentration of half-maximal effect; the source files actives as falling curves though it sought activators and does not explain the sign; nearly all actives have a fitted effect of over 65% in size; many hits overshoot -100%
Target sequence (P80244 whole entry, looked up): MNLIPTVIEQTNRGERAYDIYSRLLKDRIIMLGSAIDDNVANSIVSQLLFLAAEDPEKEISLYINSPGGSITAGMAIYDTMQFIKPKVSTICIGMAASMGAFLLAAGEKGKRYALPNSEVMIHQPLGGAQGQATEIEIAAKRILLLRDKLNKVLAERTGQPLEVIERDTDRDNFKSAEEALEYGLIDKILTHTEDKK
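ClpP 10 microg/mL final, pH 8 Tris/KCl buffer with BSA, glycerol, Tween-20; compound pinned in; FRET-FV substrate; RT 20 min; Ex320/Em430; ΔFRET vs ADEP 5.8 microM, DMSO, no enzyme.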
PINK1 expr mod – changes PINK1 expression; PINK1 immunofluorescence, high-content cytometry, 24 h; Potency, µM (doses to about 76.6 µM), inactives show at the highest dose activation (PINK1 increase), actives largely listed as activators; 0.2% of 410,000 active; AID 624263; active = well fitted activation curve with a large enough effect; inconclusive = small, poorly fitted or top-dose-only effect; inactive = flat fitted curve, though single readings scatter; cell line not stated here;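 note: potency is the fitted concentration of half-maximal effect; % of control where 0% means no effect; nearly all actives have a fitted effect of over 65% in size; a mitochondrial uncoupler was the plate control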
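PINK1 protein, normally rapidly degraded, was detected by immunofluorescence after 24 hour compound treatment of a stable cell line. Titration data (5 concentrations) came from laser-scanning cytometry, with CCCP-treated wells as controls.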
D2 ag – agonists of human D2 dopamine receptor (beta-arrestin) | P14416 | DiscoveRx PathHunter D2 beta-arrestin, luminescence, 90 min; 100% = 57 uM dopamine signal | activation, % (no concentration beside the values) | 0.084% of 360,000 active; in the data active = activation above about 40%; inconclusive = about 15% to 40%; inactive = below about 15%; note: compound concentration not given in the record; the text of the record calls up to 30% inactive
Target sequence (P14416 whole entry, looked up): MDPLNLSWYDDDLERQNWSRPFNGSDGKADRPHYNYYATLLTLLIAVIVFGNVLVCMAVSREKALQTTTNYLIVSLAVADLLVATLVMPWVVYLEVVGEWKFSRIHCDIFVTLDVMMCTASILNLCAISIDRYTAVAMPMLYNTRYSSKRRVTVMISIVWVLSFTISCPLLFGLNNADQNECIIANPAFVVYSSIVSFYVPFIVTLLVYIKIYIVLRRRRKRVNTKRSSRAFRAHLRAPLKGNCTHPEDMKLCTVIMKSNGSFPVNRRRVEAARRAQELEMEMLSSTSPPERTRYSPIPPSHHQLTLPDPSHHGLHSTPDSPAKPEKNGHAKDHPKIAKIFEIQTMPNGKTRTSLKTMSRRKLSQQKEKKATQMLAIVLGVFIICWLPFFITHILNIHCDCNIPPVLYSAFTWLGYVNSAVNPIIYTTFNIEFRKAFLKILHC
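DiscoveRx PathHunter D2 beta-arrestin cells (2,100/well) attached overnight, then compound-stimulated 90 min at 37 C in HBSS/10 mM HEPES/0.1% Tween-20 buffer; beta-galactosidase complementation read by luminescence after 1 h at ambient temperature. Dopamine 57 uM final (EC100) as control.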
gsp antag – gsp mutant antagonism | gsp-mutant cells, cAMP HTRF, 30 min; control for the full effect not named in the record | 0.4% of 340,000 active | Potency, µM (highest dose often 76.9 µM), without a hit: at the highest dose activity change, negative = inhibition, usual class: inhibitors; active = falling curve of any shape with a large fitted effect; inconclusive = falling curve, mostly with a smaller effect; inactive = flat or rising curve; cell line not stated here;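 note: intracellular cAMP measured with PDE inhibitor Ro 20-1724 present during compound exposure; potency is the fitted concentration of half-maximal effect; % is set by controls: 0 for no effect and ±100 for the full control effect; nearly all actives have a fitted effect of over 65% in size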
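HTRF cAMP measurement after 30 min RT detection following 30 min, 37C compound treatment alongside […] (added as 300 uM solution) in G418-selected cells seeded at 2000/well and grown 16–24 h.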
gsp agonist – gsp mutant agonism | gsp mutant cells, cAMP HTRF, 30 min; control for the full effect not named in the record | Potency, µM (series often up to 76.9 µM), inactives show top-dose activation (cAMP increase), usual class: activators | 0.13% of 340,000 active | AID 624287; active = well fitted activation curve with a large enough effect; inconclusive = small, poorly fitted or top-dose-only effect, or another doubt; inactive = no such curve, though single readings can be large or run the other way; cell line not stated here;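 note: phosphodiesterase inhibitor Ro 20-1724 added with compounds to block cAMP breakdown; potency is the fitted concentration of half-maximal effect; nearly all actives have a fitted effect of over 60% in size; about a fifth of the inactives were tested at one dose only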
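Cells stably selected in G418 were plated at 2000/well, grown 16-24 hr, then given compounds in DMSO with the PDE inhibitor […] (300 uM solution added) for 30 min at 37C; cAMP was read by HTRF.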
Menin-MLL FL inh – displaces fluorescein MLL peptide from human menin | Fluorescence polarization, fluorescein-MLL peptide displacement from menin | FP activity change, % at 61.4 µM | 290,000 tested, under 10 active | AID 1766; inconclusive = falling polarisation curve, or a change in total fluorescence; inactive = total fluorescence flat and polarisation flat or rising; no compound was filed as active; the % refers to the polarisation; negative = inhibition;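 note: % of control where 0% means no effect; inhibitors lower the polarisation; unlabelled MLL peptide was the positive control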
* = called active by the depositor; u = inconclusive; x = not tested or not shown; & = joins results of further samples; [ ] = dose if it differs, or a comment.

Values run as follows: gsp antag	gsp agonist	D2 ag	PINK1 expr mod	ClpP mod	Menin-MLL FL inh	Sfp inh
- COc1ccc(CNC(=O)[C@@H](NC(=O)C2CCN(C(=O)[C@@H](N)CCSC)CC2)C(C)C)cc1
 : 5.1%	x	-4.7	-0.3%	1.9%	-6.5	1.3%
- COC(=O)Cn1c2ccc(OC)cc2c2nc3ccccc3nc21
 : 13.5%	-6.1%	2.1	-2.2%	0.0%	0.0	1.1%
- CCNS(=O)(=O)c1ccc(CCC(=O)N2CCC(C)CC2)cc1
 : -1.2%	u	-2.9	3.4%	0.6%	-0.1	14.5%
- O=c1c2cc(NC(=S)N3CCCC3)ccc2nc2n1CCCCC2
 : 7.1%	u	1.7	2.7%	x	-2.4	3.7%
- O=C(c1ccc([N+](=O)[O-])cc1)N(Cc1ccccc1)Cc1ccccc1
 : u	-15.6%	1.0	-2.0%	x	x	x
- O=C1COc2ccc(C(=O)COC(=O)/C=C/c3cccc(F)c3)cc2N1
 : 2.9%	17.0%	-0.7	7.6%	-3.3%	7.9	-0.4%
- COc1ccc(CCNc2nc(-c3ccccn3)cs2)cc1OC
 : 3.2%	-27.6%	2.2	7.4%	-1.7%	2.5	u
- COC(=O)C(NC(=O)C(CC(C)C)NC(=O)C1CCC(C)CC1)C(C)C (stereo not drawn)
 : -11.2%	1.1%	0.0	1.6%	-1.5%	2.1	1.0%
- OCCNCc1cc(Br)ccc1OCc1ccccc1
 : 18.0%	-2.3%	-6.3	20.3%	1.0%	-1.6	-1.7%
- CCc1nc2c(OCc3ccccc3)cccn2c1N(C)C(=O)c1ccc2c(c1)OCO2
 : x	x	0.8	0.6%	-1.2%	x	x
- O=c1c(C/C=C/c2ccccc2)c(O)ccn1CCc1c[nH]c2ccccc12
 : u	6.6%	-2.6	0.4%	-0.6%	9.6	25.0%
- O=C(CC1C[C@H](C(=O)N2CCOCC2)[C@@]2(CCC3CCCC3)c3[nH]c4ccccc4c3CCN2C1=O)NCCN1CCOCC1 (stereo partly drawn)
 : -12.6%	x	-0.7	0.3%	1.9%	x	x
- CCN1C/C(=C/c2sccc2C)c2nc3ccccc3c(C(=O)O)c2C1
 : -7.5%	-3.7%	-5.0	-0.1%	-2.3%	-2.0	-5.5%
- O=C(Nc1ccc(NC(=O)c2cccs2)cc1Cl)c1ccco1
 : -18.8%	-1.4%[15.4 µM]	-1.3	1.9%	x	3.2	6.3%
- CCOc1ccc(CCNC(=O)CCC(=O)Nc2ccc3nc(N4CCN(C)CC4)cc(C)c3c2)cc1OCC
 : 1.8%	-0.5%	-0.9	-1.2%	3.2%	-3.8	12.3%
- CC(C)(C)OC(=O)N(CCc1ccccc1)Cc1ccccc1OCc1cccc(NC(=O)/C=C/c2ccccc2)c1
 : 10.9%	x	0.5	0.9%	-20.3%	x	x
- O=C(Nc1ccc(Oc2ccccc2)nc1)C1CCN(Cc2cccc(F)c2)CC1
 : -14.4%	2.7%	-3.2	1.9%	-3.1%	-0.6	4.1%
- O=C(Nc1ccccc1Br)c1ccc(OC(=S)N2CCOCC2)cc1
 : x	1.0%[15.4 µM]	-0.9	5.3%	x	-2.9	4.6%
- Cc1ccccc1CC(=O)N1CCC(CCC(=O)NC2CC2)CC1
 : x	3.6%	-2.1	-0.1%	0.2%	x	x
- C=CCOC(=O)C1=C(C)NC(=O)NC1c1cn(-c2ccccc2)nc1-c1cccs1 (stereo not drawn)
 : -14.9%	-2.5%	0.0	3.4%[38.3 µM]	-5.9%	2.0	2.6%
- Cc1nc(N)sc1C(=O)N/N=C/c1ccco1
 : 7.5%	0.2%[15.4 µM]	2.3	4.5%	x	3.9	-0.9%
- CCOC(=O)c1c(C)[nH]c(C(=O)OCc2csc(CC(=O)Nc3ccccc3C)n2)c1C
 : -8.4%	-10.3%	1.4	10.4%	0.4%	x	x
- CC(C)n1nnnc1SCC(=O)N1CCN(Cc2ccc3c(c2)OCCO3)CC1
 : 3.9%	27.6%	-4.7	-0.6%	-1.6%	x	x
- CC(C)CCNC(=O)C(C)N(C(=O)Cn1nnc(-c2ccc(F)cc2)n1)C1CCCC1 (stereo not drawn)
 : 5.2%	19.5%	-2.8	2.9%[38.3 µM]	0.5%	1.0	-0.3%
- CC1(NC(=O)C2CCCCC2)CCS(=O)(=O)C1 (stereo not drawn)
 : 19.6%	-1.0%[15.4 µM]	-18.1	1.8%	x	1.3	11.8%
- CCN(CC(=O)NCc1ccc(Cl)cc1)C(=O)c1cnc(Cl)c(Cl)c1
 : -3.0%	-0.2%	3.4	7.9%	x	-1.0	16.6%
- O=C(NC1CC1)c1nc2c(nnn2Cc2ccccc2Cl)c(=O)[nH]1
 : -3.7%	u	-1.8	4.8%[38.3 µM]	-1.3%	4.4	2.7%
- Cc1oc(-c2ccccc2Cl)nc1CN1CCCC1c1ccc(F)cc1 (stereo not drawn)
 : -6.8%	-89.3%[inhibitor]	-2.9	u	-6.9%	u	-11.4%
- CCCOc1ccc(F)cc1-c1cc(C(=O)NCc2cccc(Cl)c2)[nH]n1
 : x	x	5.0	-0.1%	-14.0%	x	x
- Cc1nn(-c2ccccc2)c(C)c1C(=O)OCC(=O)NC12CC3CC(CC(C3)C1)C2
 : -18.9%	-19.0%	5.2	u	-1.5%	2.5	-0.2%
- C=CCN1C(=O)c2ccc(C(=O)N(CCC)CC(=O)Nc3ccccc3C)cc2C1=O
 : 7.0%	-11.7%	-0.9	0.9%	-0.8%	x	x
- COC(=O)CN1C(=O)N(c2ccccc2)C(N(O)C(=O)Nc2ccccc2)C1(C)C (stereo not drawn)
 : -10.4%	-22.8%	-3.2	2.1%	-2.0%	4.3	-4.2%
- NS(=O)(=O)c1ccc(N2CCCC2=O)c([N+](=O)[O-])c1
 : 11.8%	-5.5%[15.4 µM]	-3.1	1.3%	x	-0.3	17.6%
- CCC(C)C(NC(=O)c1ccccc1)C(=O)Nc1ccc(S(=O)(=O)Nc2cc(C)nc(C)n2)cc1 (stereo not drawn)
 : 7.7%	4.6%	-1.5	0.3%	-1.2%	x	x
- COCCN(CCOC)S(=O)(=O)c1ccc(NC(=O)c2cnccn2)cc1
 : 6.2%	5.3%	-4.4	1.3%	-0.4%	-0.6	13.7%
- CCOc1cccc(C(c2c(C)n(C)n(-c3ccccc3)c2=O)c2c(C)n(C)n(-c3ccccc3)c2=O)c1OC
 : 0.8%	-0.2%	-2.7	-0.3%&0.0%	1.0%&1.5%	-1.5	5.8%
- O=C(Nc1ccc(N2CCOCC2)c(Cl)c1)c1ncn[nH]1
 : -6.0%	-113.6%[inhibitor]	-0.4	-2.2%	-5.1%	7.0	-10.9%
- O=C(Nc1cccc2ccccc12)c1ccc(OC(=S)N2CCOCC2)cc1
 : u	-10.6%	3.7	u	-9.0%	-2.2	6.6%
- COc1ccccc1N1CC(C(=O)OCC(=O)Nc2c(C)cccc2C)CC1=O (stereo not drawn)
 : 6.5%	-8.2%[15.4 µM]	-3.3	0.8%	x	-7.0	13.5%
- O=C(OC1CCOC1=O)c1ccc(CO)cc1 (stereo not drawn)
 : 2.2%	8.7%	-1.1	-1.1%	x	-0.2	17.1%
- O=C(NCc1ccccn1)C1Nc2ccc(OC(F)(F)F)cc2C2C=CCC12 (stereo not drawn)
 : -2.8%	x	-0.8	2.3%	-0.7%	x	x
- C=CCOC(=O)C(C#N)c1nc2ccccc2nc1N1CCN(c2ccccc2OC)CC1 (stereo not drawn)
 : -7.0%[15.4 µM]	1.4%	-1.0	-2.0%	-4.1%	5.9	13.5%
- COc1ccc(C)cc1S(=O)(=O)N(CC(=O)NC1CCCC1)c1ccc(F)cc1
 : -5.5%	-42.6%[inhibitor]	-2.4	-0.9%	-9.1%	x	9.8%
- Cc1nc(CCNC(=O)c2cccs2)cs1
 : 5.0%	6.0%	1.9	1.1%[38.3 µM]	-2.1%	0.8	0.2%
- Cc1ccc(NC(=O)CN(C)C(=O)Cn2nnc(-c3ccccc3C)n2)cc1
 : 1.6%	-39.3%	-6.3	2.9%	156.7%	x	x
- COC(CNC(=O)Cn1nc(Cc2ccncc2)c2ccccc2c1=O)OC
 : 7.8%	2.0%	1.9	0.8%	-16.3%	1.6	20.4%
- Cc1ncc(CN2CCC(N3CCC(C(=O)N4CCCC4)CC3)CC2)s1
 : 20.7%	4.7%	-2.7	-2.3%	-27.3%	x	7.4%
- CC(=O)c1c(C)[nH]c(C(=O)CN2C(=O)NC3(CCCCC3C)C2=O)c1C (stereo not drawn)
 : 4.3%	56.8%[15.4 µM]	1.4	3.7%	x	x	x
- CC1(C(=O)O)CCCN(C(=O)/C=C/c2ccccc2)C1 (stereo not drawn)
 : x	x	-2.8	-0.5%	-1.1%	x	x
- COc1cc(C(=O)Nc2ccc(NC(C)=O)cc2)ccc1OCc1ccccc1
 : 3.1%	u	2.0	1.3%	x	-0.5	-16.2%
- COc1ccc(OC)c(S(=O)(=O)N/N=C(/C)c2ccc3c(c2)OCO3)c1
 : -4.9%	-50.2%[inhibitor]	0.8	3.0%	-6.4%	0.5	13.9%
- COc1ccc(C(O)P(=O)(OC2CCCCC2)c2ccc(N(C)C)cc2)cc1OC (stereo not drawn)
 : -1.4%	-25.4%	-1.4	-2.2%	-4.3%	1.7	18.6%
- CC(=O)c1cccc(NC(=O)C2Cc3c(-c4cccc(C(N)=O)c4)ccnc3O2)c1 (stereo not drawn)
 : x	x	-0.8	0.4%	0.6%	x	x
- CCC(C)n1c(C)nc2c(c1=O)c1nc3ccccc3nc1n2CCC1=CCCCC1 (stereo not drawn)
 : 11.4%	18.3%	-0.1	x	-3.2%	3.5	10.3%
- Cc1ccc(C(=O)N2CCN=C2SCc2ccc([N+](=O)[O-])cc2)cc1
 : -13.3%	3.4%	1.5	-0.9%	0.4%	6.0	-4.4%
